Env fusion inh: blocks HIV Env-driven cell-cell fusion; HeLa-JRFL Env/CEM21 cell fusion, luciferase; inhibition, % at 12.3 µM; 360,000 tested, 1.1% active; AID 651610;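 active = mean replicate inhibition score of at least 50 and every replicate individually at or above 50; inconclusive = only one of the two criteria met; inactive = mean below 50 and not all replicates reaching 50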;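 also: 0% = plate neutral controls and 100% = maraviroc near 300 nM; one replicate is shown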
Yeast UUG start: yeast start codon fidelity modulation; activity score, % at 18.7 µM; 350,000 tested, 0.13% active; S. cerevisiae UUG-firefly luciferase reporter, luminescence/redox ratio;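 active = replicate mean at a twofold rise or more, about +100% in these data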;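 also: firefly luciferase made from a UUG start codon reports start codon fidelity; reporter light over untreated wells divided by growth signal over untreated wells; some hits fall short of that in this replicate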
Active calls of the source: *; ? = inconclusive; [ ] = remark or other dose.

Below each compound: Env fusion inh | Yeast UUG start
- COc1ccc(S(=O)(=O)Nc2ccc3c(c2)C(=O)N([C@H](C)CO)C[C@H](C)[C@H](CN(C)S(=O)(=O)c2ccc(F)cc2)O3)cc1
  31[16.7 µM] | 8
- COc1ccc(CN(C)C[C@@H]2OCCCC[C@@H](C)Oc3ccc(NC(=O)NC4CCCCC4)cc3C(=O)N([C@H](C)CO)C[C@@H]2C)cc1
  -12[16.7 µM] | 4
- C[C@@H](NC(=O)C[C@@H]1C=C[C@H](NC(=O)C2CCOCC2)[C@H](CO)O1)c1ccccc1
  -12[16.7 µM] | -2
- Cc1noc(C)c1NC(=O)Nc1cccc2c1O[C@H](CN(C)CC1CCCCC1)[C@@H](C)CN([C@H](C)CO)C2=O
  0[16.7 µM] | -2
- C[C@@H]1CCCCO[C@@H](CN(C)Cc2ccc(C(=O)O)cc2)[C@@H](C)CN([C@H](C)CO)C(=O)c2cc(NS(C)(=O)=O)ccc2O1
  -9[16.7 µM] | 10
- O=C(NCC[C@@H]1CC[C@H](NS(=O)(=O)c2ccc(Oc3ccccc3)cc2)[C@H](CO)O1)C1CC1
  2[16.7 µM] | 0
- COc1ccc(S(=O)(=O)N(C)C[C@@H]2Oc3ccc(NS(=O)(=O)c4cccs4)cc3CC(=O)N([C@H](C)CO)C[C@H]2C)cc1
  -3[16.7 µM] | 14
- C[C@H]1CN([C@@H](C)CO)C(=O)c2cc(/C=C/c3ccccc3)cnc2O[C@H]1CN(C)C(=O)c1ccc(F)cc1
  -1[16.7 µM] | 19
- COCC(=O)N1C[C@@H](C)[C@@H](OC)CN(C)C(=O)c2cc(NS(C)(=O)=O)ccc2OC[C@H]1C
  -10[16.7 µM] | -12
- CC(C)NC(=O)Nc1ccc2c(c1)C(=O)N([C@H](C)CO)C[C@H](C)[C@H](CN(C)Cc1ccc(C(=O)O)cc1)OCCCC[C@H](C)O2
  0[16.7 µM] | 8

One compound at a time, as listed above. Values in the order: Env fusion inh	Yeast UUG start
Profile of C[C@@H](NC(=O)C[C@@H]1C=C[C@H](NC(=O)C2CCOCC2)[C@H](CO)O1)c1ccccc1 : -12[16.7 µM]	-2
Profile of COc1ccc(S(=O)(=O)N(C)C[C@@H]2Oc3ccc(NS(=O)(=O)c4cccs4)cc3CC(=O)N([C@H](C)CO)C[C@H]2C)cc1 : -3[16.7 µM]	14

More records:
Below each compound: Env fusion inh | Yeast UUG start
- COc1ccc(C#Cc2cnc3c(c2)C(=O)N([C@@H](C)CO)C[C@H](C)[C@@H](CN(C)CC2CCCC2)O3)cc1
  -14[16.7 µM] | 44
- CNC[C@H]1Oc2ncc(-c3ccc(OC)cc3)cc2C(=O)N([C@H](C)CO)C[C@@H]1C
  -14[16.7 µM] | 35
- C[C@@H]1CN([C@H](C)CO)C(=O)c2cc(NC(=O)c3ccccc3)ccc2O[C@@H](C)CCCCO[C@@H]1CN(C)S(=O)(=O)c1cn(C)cn1
  -25[16.7 µM] | -6
- C[C@H](CO)N1C[C@H](C)[C@H](CN(C)S(=O)(=O)c2cccc(F)c2)Oc2ncc(C#CC3(O)CCCC3)cc2C1=O
  -18[16.7 µM] | 3
- C[C@@H]1CN([C@@H](C)CO)S(=O)(=O)c2ccc(-c3ccc(C(=O)N(C)C)cc3)cc2O[C@H]1CN(C)C(=O)Nc1ccccc1F
  22[16.7 µM] | 31
- COc1ccccc1S(=O)(=O)N[C@H]1CC[C@H](CC(=O)N2CCCCC2)O[C@H]1CO
  -8[16.7 µM] | -29
- C[C@H](CO)N1C[C@H](C)[C@@H](CN(C)Cc2ccc(F)cc2)Oc2cc(Br)ccc2S1(=O)=O
  40[16.7 µM] | 5
- Cc1ccccc1S(=O)(=O)N1C[C@H](O)COC[C@@H]2O[C@@H](CC(=O)NCc3ccccc3Cl)CC[C@H]21
  -12[16.7 µM] | 53
- COc1ccc(CN(C)C[C@@H]2OCCCC[C@H](C)Oc3ccc(NS(=O)(=O)c4cn(C)cn4)cc3C(=O)N([C@@H](C)CO)C[C@H]2C)cc1
  -31[16.7 µM] | 9
- COc1ccc(-c2cnc3c(c2)C(=O)N([C@H](C)CO)C[C@H](C)[C@@H](CN(C)Cc2ccccn2)O3)cc1
  -3[16.7 µM] | -14

Exported as tab-separated lines: entries from further up.
molecule	Env fusion inh	Yeast UUG start
CNC[C@H]1Oc2ncc(-c3ccc(OC)cc3)cc2C(=O)N([C@H](C)CO)C[C@@H]1C	-14[16.7 µM]	35
Cc1ccccc1S(=O)(=O)N1C[C@H](O)COC[C@@H]2O[C@@H](CC(=O)NCc3ccccc3Cl)CC[C@H]21	-12[16.7 µM]	53
C[C@@H]1CN([C@H](C)CO)C(=O)c2cc(NC(=O)c3ccccc3)ccc2O[C@@H](C)CCCCO[C@@H]1CN(C)S(=O)(=O)c1cn(C)cn1	-25[16.7 µM]	-6

The list goes on:
Below each compound: Env fusion inh | Yeast UUG start
- C[C@@H]1CN([C@@H](C)CO)S(=O)(=O)c2ccc(-c3cccnc3)cc2O[C@@H]1CN(C)C(=O)c1ccc2c(c1)OCO2
  ? | 3
- COc1cccc(NC(=O)C[C@H]2CC[C@H]3[C@@H](COc4ccc(NC(=O)C5CCCCC5)cc4C(=O)N3C)O2)c1
  8[16.7 µM] | 6
- CN(C)C(=O)C[C@H]1CC[C@H](NC(=O)c2ccc(F)cc2)[C@H](CO)O1
  15[16.7 µM] | -7
- C[C@H]1CN([C@@H](C)CO)C(=O)c2cc(NC(=O)Cn3cnnn3)ccc2O[C@H]1CN(C)S(C)(=O)=O
  -5[16.7 µM] | -12
- COc1ccc(-c2ccc3c(c2)O[C@@H](CN(C)CC2CCOCC2)[C@@H](C)CN([C@@H](C)CO)S3(=O)=O)cc1
  2[16.7 µM] | 6
- CCS(=O)(=O)N[C@H]1CC[C@@H](CC(=O)NCc2ccc(Cl)cc2)O[C@@H]1CO
  70*[16.7 µM] | 4
- C[C@H](CO)N1C[C@H](C)[C@@H](CN(C)C(=O)Nc2ccc(F)cc2)OCCCC[C@H](C)Oc2ccc(NC(=O)Nc3ccc(C(F)(F)F)cc3)cc2C1=O
  4[16.7 µM] | -4
- C[C@@H]1CN([C@H](C)CO)C(=O)Cc2cc(NC(=O)Nc3ccc(C(F)(F)F)cc3)ccc2O[C@H]1CN(C)C(=O)NC1CCCCC1
  -10[16.7 µM] | -12
- C[C@@H]1CCCCO[C@H](CN(C)S(C)(=O)=O)[C@H](C)CN([C@@H](C)CO)C(=O)c2cc(NC(=O)NC3CCCCC3)ccc2O1
  10[16.7 µM] | -2
- O=C(NCC[C@@H]1CC[C@@H](NS(=O)(=O)c2cccc(F)c2)[C@H](CO)O1)Nc1cc(F)ccc1F
  -18[16.7 µM] | -10
- C[C@@H]1CN([C@@H](C)CO)S(=O)(=O)c2ccc(C#Cc3cccnc3)cc2O[C@H]1CN(C)CC1CCCC1
  18[16.7 µM] | 5
- CO[C@H]1CN(C)C(=O)c2cc(NC(=O)c3ccno3)ccc2OC[C@H](C)NC[C@H]1C
  3[16.7 µM] | -8
- CO[C@H]1CN(C)C(=O)c2cc(NS(=O)(=O)c3ccc(Cl)cc3)ccc2OC[C@H](C)NC[C@H]1C
  -9[16.7 µM] | -15
- C[C@H]1CN([C@@H](C)CO)C(=O)c2cc(C#CC(C)(C)O)cnc2O[C@@H]1CN(C)C(=O)CC1CC1
  -2[16.7 µM] | -6
- O=C(C[C@@H]1C[C@@H]2c3cc(NC(=O)NC4CCCC4)ccc3O[C@@H]2[C@@H](CO)O1)NCc1ccc2c(c1)OCO2
  8[16.7 µM] | -46
- O=C(C[C@@H]1C[C@H]2c3cc(NC(=O)NC4CCCCC4)ccc3O[C@H]2[C@H](CO)O1)NCCc1ccccc1
  2[16.7 µM] | 2
- CCC(=O)Nc1ccc2c(c1)OC[C@H](C)N(CCC(F)(F)F)C[C@@H](C)[C@@H](OC)CN(C)C2=O
  -3[16.7 µM] | 3
- Cc1noc(C)c1S(=O)(=O)N(C)C[C@@H]1OCCCC[C@H](C)Oc2ccc(N(C)C)cc2C(=O)N([C@H](C)CO)C[C@H]1C
  3[16.7 µM] | 13
- O=C(CCN1CCCCC1)N[C@@H]1CC[C@@H](CCNS(=O)(=O)c2ccc(F)cc2)O[C@H]1CO
  8[16.7 µM] | -9
- C[C@H]1CN([C@@H](C)CO)C(=O)c2cc(C#CC3CCCCC3)cnc2O[C@H]1CN(C)Cc1ccncc1
  3[16.7 µM] | -11
- C[C@H](CO)N1C[C@H](C)[C@H](CN(C)S(=O)(=O)c2ccc(F)cc2)OCCCC[C@H](C)Oc2ccc(NS(=O)(=O)c3ccccc3)cc2C1=O
  -102[16.7 µM] | -6
- CCC(=O)N(C)C[C@@H]1Oc2cc(-c3cccc(F)c3)ccc2S(=O)(=O)N([C@H](C)CO)C[C@H]1C
  13[16.7 µM] | 0
- CN(C)C(=O)C[C@@H]1CC[C@H]2[C@@H](COC[C@H](O)CN2C(=O)c2ccncc2)O1
  -21[16.7 µM] | -5
- O=C(N[C@@H]1CC[C@H](CCn2cc(-c3ccc(F)cc3)nn2)O[C@H]1CO)c1cnccn1
  -11[16.7 µM] | -5
- O=C(NCC[C@H]1CC[C@@H](NC(=O)c2ccc3c(c2)OCO3)[C@@H](CO)O1)Nc1ccc(Cl)cc1
  -2[16.7 µM] | 9
- C[C@H]1CN([C@@H](C)CO)C(=O)c2cc(NC(=O)c3ccncc3)ccc2O[C@@H]1CN(C)S(C)(=O)=O
  6[16.7 µM] | -10
- Cc1ccccc1S(=O)(=O)NCC[C@@H]1CC[C@H](NC(=O)Nc2cccc(Cl)c2)[C@H](CO)O1
  -12[16.7 µM] | -2
- C[C@H](CO)N1C[C@H](C)[C@H](CN(C)Cc2ccc(Oc3ccccc3)cc2)Oc2ccc(NC(=O)Nc3ccccc3)cc2C1=O
  -11[16.7 µM] | 23
- C[C@@H]1CN([C@@H](C)CO)C(=O)c2cc(NC(=O)CCC(F)(F)F)ccc2O[C@@H](C)CCCCO[C@H]1CN(C)S(=O)(=O)c1cn(C)cn1
  25[16.7 µM] | 17
- CCCN(C)C[C@H]1OCCCC[C@H](C)Oc2ccc(NC(=O)Nc3cccc4ccccc34)cc2C(=O)N([C@@H](C)CO)C[C@H]1C
  -9[16.7 µM] | 3
- C[C@@H]1CN([C@H](C)CO)S(=O)(=O)c2ccc(-c3cccc(C(=O)N(C)C)c3)cc2O[C@@H]1CN(C)C(=O)Nc1ccccc1
  -118[16.7 µM] | 2
- Cc1noc(C)c1NC(=O)Nc1ccc2c(c1)C(=O)N([C@@H](C)CO)C[C@@H](C)[C@@H](CN(C)S(=O)(=O)c1cn(C)cn1)OCCCC[C@H](C)O2
  -3[16.7 µM] | -6
- C[C@@H](NC(=O)C[C@H]1CC[C@@H](NC(=O)C2CCOCC2)[C@@H](CO)O1)c1ccccc1
  -24[16.7 µM] | -3
- C[C@H](CO)N1C[C@H](C)[C@@H](CN(C)C)Oc2cc(C#Cc3ccccc3)ccc2S1(=O)=O
  41[16.7 µM] | 5
- C[C@@H]1CN([C@H](C)CO)S(=O)(=O)c2ccc(C#C[C@@H](C)O)cc2O[C@H]1CN(C)C(=O)CC1CC1
  -51[16.7 µM] | -3
- CO[C@@H]1CN(C)C(=O)c2cc(NC(C)=O)ccc2OC[C@@H](C)N(Cc2cc(-c3ccccc3)on2)C[C@H]1C
  28[16.7 µM] | 6
- O=C(Nc1ccc2c(c1)OCO2)N[C@@H]1CC[C@H](CC(=O)N2CCN(c3ccccc3)CC2)O[C@@H]1CO
  5[16.7 µM] | 20
- COc1ccc(NC(=O)N(C)C[C@H]2Oc3ccc(NC(=O)Nc4ccc(F)cc4)cc3CC(=O)N([C@H](C)CO)C[C@H]2C)cc1
  12[16.7 µM] | 10
- CCS(=O)(=O)N1[C@H](CO)[C@H](c2ccc(C#CC(C)C)cc2)[C@@H]1C#N
  -9[16.7 µM] | -10
- C/C=C/c1ccc2c(c1)O[C@@H](CN(C)S(=O)(=O)c1ccc(C)cc1)[C@@H](C)CN([C@H](C)CO)S2(=O)=O
  45[16.7 µM] | -2
- CNC[C@H]1Oc2c(NC(=O)C3CC3)cccc2C(=O)N([C@@H](C)CO)C[C@@H]1C
  -1[16.7 µM] | -21
- CC(C)C#Cc1ccc2c(c1)O[C@@H](CN(C)C(=O)c1ccccn1)[C@@H](C)CN([C@H](C)CO)S2(=O)=O
  -7[16.7 µM] | 38
- C[C@H]1CCCCO[C@@H](CN(C)Cc2ccc3c(c2)OCO3)[C@@H](C)CN([C@@H](C)CO)C(=O)c2cc(NC(=O)c3ccccc3)ccc2O1
  -1[16.7 µM] | 1
- C[C@@H]1CN([C@@H](C)CO)C(=O)c2cc(NC(=O)C3CCCCC3)ccc2O[C@@H](C)CCCCO[C@H]1CN(C)Cc1ccc(C(F)(F)F)cc1
  21[16.7 µM] | 30
- C[C@@H]1CCCCO[C@@H](CN(C)C(=O)c2ccccc2)[C@H](C)CN([C@@H](C)CO)C(=O)c2cc(NC(=O)CCC(F)(F)F)ccc2O1
  -9[16.7 µM] | 14
- O=C(C[C@H]1CC[C@@H](NC(=O)C2CCC2)[C@H](CO)O1)NCc1ccncc1
  12[16.7 µM] | 0
- COCc1cn(CC[C@@H]2CC[C@@H](NC(=O)Nc3ccc(Cl)cc3)[C@@H](CO)O2)nn1
  -12[16.7 µM] | 0
- C[C@@H]1CN([C@H](C)CO)C(=O)c2cccc(NC(=O)C3CCOCC3)c2O[C@@H]1CN(C)C(=O)Nc1ccc2c(c1)OCO2
  -30[16.7 µM] | 3
- CC(C)NC(=O)NCC[C@H]1CC[C@@H](NS(=O)(=O)c2ccc(-c3ccccc3)cc2)[C@H](CO)O1
  -5[16.7 µM] | 6
- CC(C)NC(=O)N(C)C[C@H]1Oc2cc(C#Cc3ccc(F)cc3)ccc2S(=O)(=O)N([C@@H](C)CO)C[C@@H]1C
  ? | 13
- C[C@H](CO)N1C[C@H](C)[C@H](CN(C)Cc2ccc3c(c2)OCO3)Oc2ccc(NC(=O)c3ccncc3)cc2CC1=O
  -13[16.7 µM] | -8

This is a subset (hit frequency here may not be typical).
